RE007 growth inh – qHTS Assay for Inhibitors of the HIV-1 protein Vpr. 0.21% of 360,000 active. Potency, µM (titrated, usually from 92.2 µM), for inactives: at the highest dose activity change, negative = less growth. S. pombe RE007 Vpr strain, BacTiter-Glo ATP luminescence, 24 h; control for the full effect not named in the record; active = well fitted falling curve with a large enough effect; inconclusive = small, poorly fitted or top-dose-only effect; inactive = no such curve, though single readings can be large or run the other way;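 note: % is set by controls: 0 for no effect and ±100 for the full control effect; nearly all actives have a fitted effect of over 50% in size; the assay follows cell death caused by Vpr and the record does not say whether a fall means rescue or toxicity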
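Fission yeast RE007 carrying one integrated HIV-1 vpr copy, seeded at OD 0.01 in PMG+AL medium with 23 nL pinned compound. Grown 24 h at 30 degrees; viability read by BacTiter-Glo luminescence after 5 min.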
Cruzain noTriton – qHTS Assay for Promiscuous and Specific Inhibitors of Cruzain (without detergent). purified cruzain, Z-FR-AMC fluorescence, no detergent. 2.3% of 200,000 active. Potency, µM, without a hit: max response, negative = inhibition, actives largely listed as inhibitors. Cruzipain (Trypanosoma cruzi), P25779; active = well fitted curve in the direction sought with a large enough effect; inconclusive = small, poorly fitted or top-dose-only effect, or another doubt; inactive = no such curve, though single readings can be large; an effect the other way counts as inactive or inconclusive;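 note: plate controls were enzyme without inhibitor for no effect and buffer without enzyme for full effect; nearly all actives have a fitted effect of over 40% in size; top concentration of the series not given in the record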
Target sequence (P25779 123-467 limits assumed): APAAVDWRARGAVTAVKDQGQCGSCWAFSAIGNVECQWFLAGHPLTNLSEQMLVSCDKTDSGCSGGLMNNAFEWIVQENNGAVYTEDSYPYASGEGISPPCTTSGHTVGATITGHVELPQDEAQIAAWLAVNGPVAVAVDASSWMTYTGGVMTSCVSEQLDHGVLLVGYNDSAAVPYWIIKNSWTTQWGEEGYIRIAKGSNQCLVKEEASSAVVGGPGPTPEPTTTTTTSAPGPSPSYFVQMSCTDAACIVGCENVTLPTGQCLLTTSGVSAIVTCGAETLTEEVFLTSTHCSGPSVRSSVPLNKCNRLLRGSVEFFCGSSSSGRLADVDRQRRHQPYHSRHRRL
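Detergent-free condition (0.00005% Triton X-100) in acetate buffer pH 5.5 with DTT. 1.5 nM enzyme and compound were pre-mixed 15 min, then 2 uM Z-FR-AMC substrate added; reaction progress from fluorescence change between first and third reads (60 s).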
Cruzain inh Det – qHTS Assay for Promiscuous and Specific Inhibitors of Cruzain (with detergent). 0.43% of 200,000 active. Cruzipain (Trypanosoma cruzi), P25779. purified cruzain, Z-FR-AMC fluorescence, 0.01% Triton. Potency, µM, for the others: max response, negative = inhibition, usual class: inhibitors; active = well fitted curve in the direction sought with a large enough effect; inconclusive = small, poorly fitted or top-dose-only effect, or another doubt; inactive = no such curve, though single readings can be large; an effect the other way counts as inactive or inconclusive;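 note: plate controls were neutral wells for no effect and buffer without enzyme for full effect; nearly all actives have a fitted effect of over 40% in size; top concentration of the series not given in the record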
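Enzyme 1.5 nM, Z-FR-AMC 2 uM, NaOAc 100 mM pH 5.5, DTT 5 mM, Triton X-100 0.01%; 15 min RT compound preincubation; kinetic ex360/em450, 60 s delta.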
StopGo reporter – High Throughput Screening for Foot and Mouth Disease Virus Antivirals; human cells with a luciferase reporter of 2A StopGo recoding; control for the full effect not named in the record; 1.2% of 410,000 active; Potency, µM (series often up to 57.9 µM), for the others: at the top dose signal change, negative = less light; AID 1159524, 2015; active = well fitted falling curve with a large enough effect; inconclusive = small, poorly fitted or top-dose-only effect; inactive = no such curve, though single readings can be large or run the other way; tested in HEK293T cells; note: % is set by controls: 0 for no effect and ±100 for the full control effect; nearly all actives have a fitted effect of over 45% in size; luciferase light after 4 h
MARV entry inh – qHTS for inhibitors of binding or entry into cells for Marburg Virus | Marburg virus pseudotyped entry inhibition, cell reporter; control for the full effect not named in the record; about a third of the inactives were read at about 46 µM | Potency, µM (doses to about 37.8 µM), for inactives: top-dose activity change, negative = inhibition, hits mostly inhibitors | 1.8% of 300,000 active; active = well fitted inhibition curve with a large enough effect; inconclusive = small, poorly fitted or top-dose-only effect, or effect the other way; inactive = flat fitted curve, though single readings scatter; tested in HEK293 cells; about a fifth of its hits are not listed in these tables; note: % is set by controls: 0 for no effect and ±100 for the full control effect; luciferase read-out
LASV entry inh – qHTS for Inhibitors of binding or entry into cells for Lassa Virus. Lassa virus pseudotype entry inhibition, cell reporter; control for the full effect not named in the record. Potency, µM (series often up to 37.9 µM), inactives show at the highest dose activity change, negative = inhibition, usual class: inhibitors. 1.2% of 300,000 active. AID 540256, 2011; active means well fitted inhibition curve with a large enough effect; inconclusive means small, poorly fitted or top-dose-only effect, or effect the other way; inactive means flat fitted curve, though single readings scatter; tested in HEK293 cells; note: % is set by controls: 0 for no effect and ±100 for the full control effect; nearly all actives have a fitted effect of over 50% in size; luciferase read-out
SARS PLpro yeast – qHTS of Yeast-based Assay for SARS-CoV PLP; S. cerevisiae expressing SARS-CoV PLpro, growth rescue; control for the full effect not named in the record; Potency, µM (series often up to 32.9 µM), for inactives: at the top dose activity, positive = growth rescue; 0.19% of 330,000 active; note: 0% is about no effect; nearly all actives have a fitted effect of over 55% in size; growth read by luminescence after 48 h
NS1 function inh – qHTS Assay for Inhibitors of Influenza NS1 Protein Function | S. cerevisiae slowed by influenza A NS1, growth recovery by OD600 | Potency, µM (doses to about 46.1 µM), without a hit: top-dose activity, positive = more growth | 0.4% of 270,000 active; note: actives are rising curves; nearly all actives have a fitted effect of over 50% in size
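Recovery from NS1-induced slow growth read by OD600 in budding yeast switched to galactose assay medium (pH 6.0, -URA) at 1:100 dilution. Compound 23 nl per well; the matching strain lacking NS1 serves as control.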
Starred values were filed as active, the others as inactive; ? = inconclusive; . = not tested or not shown; & = joins results of further samples; [ ] = dose if it differs, or a comment. Unless noted, calls come from the whole dose curve; as a rule, active means well fitted rising curve with a large enough effect; inconclusive means small, poorly fitted or top-dose-only effect; inactive means no such curve, though single readings can be large or run the other way. Potency is the fitted concentration of half-maximal effect.

SMILES | RE007 growth inh | Cruzain noTriton | Cruzain inh Det | StopGo reporter | MARV entry inh | LASV entry inh | SARS PLpro yeast | NS1 function inh
CC1CCN(C(=O)c2[nH]cnc2C(=O)NCC(=O)OC(C)(C)C)CC1 | 2.2% | . | . | -8.7% | . | . | 2.2% | -5.0%
O=C(NCc1ccccc1)c1nnc(CS(=O)(=O)c2ccccc2)o1 | -0.6% | . | . | 0.0% | . | . | 1.7% | 1.2%
CC1(/[N+]([O-])=C\c2ccccc2F)CCCCC1=O (stereo not drawn) | 1.9% | . | . | -9.9% | 16.7% | 0.7% | -0.9% | 2.2%
OCCN1CCN(CC(O)COc2ccc3ccccc3c2)CC1 (stereo not drawn) | 34.3%&-2.7% | -10.6% | 5.4% | -1.2%&17.5% | 3.4%[46.1 µM] | ? | -2.0% | -0.7%
O=C(NCc1nc2ccccc2[nH]1)C1=C[C@@H](c2ccc(Br)cc2)C[C@@H](OCCCCO)O1 | -1.3% | . | . | -24.6% | . | . | -1.7% | 0.7%
CCc1nnc(NS(=O)(=O)c2ccc(NC(=O)c3cc(Cl)ccc3Cl)cc2)s1 | 8.0% | . | . | -7.0% | -7.7%[46.1 µM] | ? | -0.7% | 10.9%
Cc1cc(Br)cc(Br)c1OCC(=O)NNC(=O)Nc1ccccc1 | 1.5% | . | . | -8.6% | -17.6%[46.1 µM] | -6.7% | . | .
O=C(c1ccccc1F)N1CCN(c2ccc([N+](=O)[O-])c3ncccc23)CC1 | 5.7% | -19.1% | -15.8% | ? | ? | -1.8% | -12.4% | -5.9%
CC(C)(C)C(=O)/C=C(\N)c1ccncc1 | 7.7% | -2.2% | -1.3% | -7.9% | ? | -2.6% | -1.9% | -3.9%
CC1=NN(C(N)=S)C(=O)C1N=Nc1ccc(C)c(Br)c1 (stereo not drawn) | -12.1% | . | . | 2.7% | . | . | -2.6% | -50.9%
CC(=O)N1CCN(S(=O)(=O)c2ccc(S(=O)(=O)NC3CC3)cc2)CC1 | 16.0% | -1.0% | 6.5% | -21.8% | 5.3% | -0.5% | -3.4% | -7.1%
COc1ccc(OCCOC(=O)c2cccc(-n3cnnn3)c2)cc1 | -25.1% | -4.4% | 1.5% | 37.7%[activator] | ? | -1.0% | 3.9% | -6.8%
COc1cc(C2CC(=O)Nc3c2c(=O)[nH]c2ncnn32)ccc1O (stereo not drawn) | . | 15.7% | -0.5% | -10.0% | -0.5%[46.1 µM] | 1.4%[46.1 µM] | . | .
Cc1c(-n2c(=S)[nH]c3ccccc3c2=O)c(=O)n(-c2ccccc2)n1C | -0.9%[3.69 µM] | -25.1% | -6.4% | 7.0% | 1.2% | -9.3% | 6.1% | 0.6%
COc1ccc(C2SCCN2S(=O)(=O)c2ccccc2)cc1 (stereo not drawn) | 12.5% | . | . | 0.0% | ? | -27.8% | -2.6% | -5.9%
COCCN1CN=C(Nc2nc3ccccc3o2)NC1 | 8.2% | -1.5% | 7.8% | 35.5%[activator] | 8.3% | 22.8% | 4.5% | 8.5%
CS(=O)(=O)c1ccc2nc(NC(=O)c3ccc(Cl)nc3)sc2c1 | 6.9% | . | . | -9.8% | ? | -28.8%[46.1 µM] | -0.4% | .
Cn1c(SCC(=O)Nc2ccccc2Cl)nnc1C1CC1 | 3.9% | . | . | 2.9% | 14.2% | ? | 12.2% | -8.0%
Cc1ccc(CNC(=O)CN(Cc2ccccc2)S(C)(=O)=O)cc1 | 2.4% | 7.8% | 0.5% | -14.3% | 1.6% | -13.1% | -11.9% | -1.0%
Cn1c(=O)c(=O)n(C)c2cc(S(=O)(=O)N3CCCCCC3)ccc21 | 4.0% | -6.2% | -1.7% | -8.1% | 5.3% | 18.1% | -2.7% | -0.4%
CN(Cc1cc2ccccc2[nH]c1=O)C(=O)C1CCCCC1 | 23.7% | -4.1% | -1.0% | 0.0% | ? | -18.4% | 0.9% | -1.0%
CCCCCCC(=O)Oc1ccc(N2C(=O)CCC2=O)cc1 | 10.5% | . | . | 10.3% | 22.7%[46.1 µM] | 0.3% | -1.2% | .
Cc1ccc(C(c2nnnn2CS(=O)(=O)c2ccc(C)cc2)N2CCC(C(N)=O)CC2)cc1 (stereo not drawn) | 14.6% | ? | 1.5% | -9.2% | -0.9%[46.1 µM] | -16.8% | 7.4% | -26.4%
CC(C)CN(CC(C)C)C(=O)Nc1ccc(F)cc1F | ? | . | . | -8.5% | ? | -21.3%[46.1 µM] | -0.1% | 0.0%
CCc1ccc(NC(=O)CC2C(=O)NCCN2C(=O)c2ccccc2OC)cc1 (stereo not drawn) | -18.3% | . | . | -14.1%&13.1% | 1.6% | ? | . | 11.2%

New compounds follow:
SMILES | RE007 growth inh | Cruzain noTriton | Cruzain inh Det | StopGo reporter | MARV entry inh | LASV entry inh | SARS PLpro yeast | NS1 function inh
O=C(O)C1CCCCC1C(=O)Nc1ccc2c(c1)CCC2 (stereo not drawn) | -10.9% | -7.3% | 0.7% | -1.3% | 2.5% | 3.9% | 2.1% | 6.9%
COc1ccc(/C=N/Nc2ccccn2)cc1O | -25.5% | . | . | 20.4% | -15.4%[46.1 µM] | ? | 2.5% | -4.2%
Cc1ccc(S(=O)(=O)c2cc3ccccc3oc2=O)cc1 | 12.1% | . | . | -2.4% | -16.1%[46.1 µM] | -29.4% | 0.4% | .
COc1cc(CN=C(C)c2c(O)n(C3CCCCC3)c(=O)[nH]c2=O)cc(OC)c1 | -12.6% | . | . | ? | -27.0%[46.1 µM] | ? | 0.2% | 8.3%
COc1cc(NC(=O)C2CCCN(S(=O)(=O)c3cnc[nH]3)C2)cc(OC)c1 (stereo not drawn) | 9.4% | -3.1% | 6.6% | -27.6% | . | . | -0.9% | ?
COc1ccc(NC(=O)CSc2nc(-c3ccc(C)cc3)cc(C(F)(F)F)c2C#N)cc1 | 9.8% | ? | 4.7% | -1.7% | 1.9% | -3.2% | 0.4% | 8.7%
Cc1ccc(/C=N/Nc2nncn2N)cc1 | -17.7% | . | . | 13.2% | ? | ? | -6.1% | -36.4%
CCSc1ccccc1C(=O)N1CCC2(CC1)CC(=O)c1ccccc1O2 | -2.4% | . | . | ? | ? | -9.9% | 1.5% | .
O=C(Nc1ccccc1F)C1C2C=CC3(O2)C1C(=O)N(c1cccnc1)C3C(=O)NC1CCCCC1 (stereo not drawn) | 10.8% | 15.4% | 0.5% | -7.8% | -1.7%&-1.7% | 19.8% | 2.8% | -3.5%
Cn1c(Sc2nc3ccccc3n2C)nc2ccccc21 | 25.8% | -2.2% | 0.6% | -13.2% | ? | ? | 14.2% | -18.3%
CC(C)Sc1nc2ccsc2c(=O)[nH]1 | -17.7% | . | . | 1.3% | -5.9%[46.1 µM] | 11.3% | 7.1% | .
Cc1ccc(S(=O)(=O)Nc2nc3ccccc3s2)cc1[N+](=O)[O-] | 1.2% | . | . | 65.3%[activator] | ? | 20.5% | -1.2% | 5.9%
CCCCOC(=O)C1C2CCC(O2)C1C(=O)OCC (stereo not drawn) | 10.7% | . | . | -10.8% | 8.4% | 19.0% | . | .
O=C(O)CCSc1nc(C(F)(F)F)cc(=O)n1-c1ccccc1 | -10.4% | 3.2% | -0.2% | -7.9% | 14.5% | -4.9% | 5.4% | -2.0%
Cc1ccc(S(=O)(=O)N2CCCC(C(=O)N3CCN(c4ccccc4)CC3)C2)cc1 (stereo not drawn) | -19.5% | . | . | ? | ? | ? | 1.5% | -15.9%
CCOC(=O)Cc1csc(NC(=O)CSc2nc3sc(C(=O)O)c(C)c3c(=O)[nH]2)n1 | -13.1% | ? | 0.6% | 12.3% | 3.4% | 0.4% | 0.3% | 11.6%
O=C(CC1C(=O)NCCN1C(=O)Nc1ccccc1)Nc1ccc2c(c1)OCCO2 (stereo not drawn) | 3.0% | -3.0% | 2.1% | 13.4% | ? | -0.3% | 5.5% | -2.9%
O=C(CSc1nnc(-c2cccnc2)o1)c1cc2ccccc2oc1=O | -4.0% | -14.8% | -10.3% | 0.0% | -1.7% | 3.5% | -1.1% | ?
COCCN(C(=S)Nc1ccccc1OC)C1CCN(C(C)=O)CC1 | -8.3% | 1.9% | 8.3% | -26.3% | 11.4% | 14.5% | 7.3% | 0.4%
Cc1cc(-c2ccccc2)nc2cc(C(=O)NCc3ccco3)nn12 | 11.9% | . | . | 7.0% | . | . | 1.5% | -3.0%
O=C(Nc1ncccn1)c1ccc(C(F)(F)F)cc1 | -8.3% | -3.5% | -3.5% | 15.3% | -11.0% | -20.2% | -0.4% | 3.7%
O=C(O)CCOc1ccc2c(c1)OCCO2 | 1.1% | 4.7% | 5.2% | -24.2% | 26.6% | 8.7% | -6.0% | 1.6%
Cc1ccc(CNc2nc3ccccc3n3c(C)nnc23)cc1 | . | -17.7% | -4.0% | -15.9% | . | -20.5%[46.1 µM] | . | .
CCN(CC)CCSc1nnc(Nc2ccccc2)n1-c1ccccc1 | -8.6% | . | . | -2.0% | ? | -9.3% | 1.7% | .
O=C(O)c1cc2nc(-c3ccccc3)cc(-c3ccccc3)n2n1 | 3.4% | . | . | -13.3% | 2.3%[46.1 µM] | -2.0% | -0.6% | 8.2%
CC(=O)Nc1ccc(NC(=O)CSc2nc3nc(C)cc(C)c3c(=O)[nH]2)cc1 | 2.2% | . | . | -3.7% | 4.7%[46.1 µM] | 28.2%[46.1 µM] | . | -2.1%

Of the compounds above, these have a nitro group on carbon.
SMILES | RE007 growth inh | Cruzain noTriton | Cruzain inh Det | StopGo reporter | MARV entry inh | LASV entry inh | SARS PLpro yeast | NS1 function inh
O=C(c1ccccc1F)N1CCN(c2ccc([N+](=O)[O-])c3ncccc23)CC1 | 5.7% | -19.1% | -15.8% | ? | ? | -1.8% | -12.4% | -5.9%
Cc1ccc(S(=O)(=O)Nc2nc3ccccc3s2)cc1[N+](=O)[O-] | 1.2% | . | . | 65.3%[activator] | ? | 20.5% | -1.2% | 5.9%
